High-throughput results deposited in PubChem BioAssay by several laboratories.
Rce1 inh = yeast Rce1p protease inhibitors, primary screen, biochemical, fluorescence, cell-free homogeneous; CAAX prenyl protease 2 (Saccharomyces cerevisiae (strain ATCC 204508 / S288c)), Q03530; yeast membranes, quenched prenylated peptide cleavage fluorescence; calls only; 0.27% of 290,000 active; AID 2563, 2010;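 active = fall in fluorescence gain of 50% or more versus controls, with final raw signal at or below 3038400; inconclusive = same 50% fall but final raw signal above 3038400; inactive = fall in fluorescence gain under 50%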;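 note: plate controls were neutral control wells for no effect and wells lacking membranes for full effect; tested at 10 µM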
Target sequence (Q03530 whole entry, looked up): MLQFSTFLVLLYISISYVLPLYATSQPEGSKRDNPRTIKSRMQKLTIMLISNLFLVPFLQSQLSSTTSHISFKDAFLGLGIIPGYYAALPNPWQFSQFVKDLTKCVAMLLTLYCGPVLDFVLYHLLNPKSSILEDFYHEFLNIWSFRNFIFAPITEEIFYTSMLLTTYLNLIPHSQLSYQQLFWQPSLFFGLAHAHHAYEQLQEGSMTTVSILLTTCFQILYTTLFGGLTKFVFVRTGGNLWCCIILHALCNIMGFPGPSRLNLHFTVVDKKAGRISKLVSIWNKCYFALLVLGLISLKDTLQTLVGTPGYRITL
CSC inhib = cancer stem cell viability inhibitors, primary screen, luminescence; AID 2717, 2010; inhibition, % at 7.5 µM; 1.1% of 300,000 active; cancer stem cell-like cells viability;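 active = mean at 75% or more and at least half the replicates too; inconclusive = mean and replicates disagree; tested in HMLE shEcad cells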;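 note: 0% = median of negative and 100% = median of positive control wells; the first replicate is given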
MT1-MMP act inh = blockers of MT1-MMP proenzyme processing, primary screen, HT1080 RFP-PRO-GFP cells, GFP/RFP fluorescence; Matrix metalloproteinase-14 (Homo sapiens), P50281; GFP/RFP ratio change, % at 20 µM; AID 651647, 2012; 0.061% of 360,000 active; GFP/RFP ratio fluorescence, overnight; percent of plate control window, DMSO zero;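 active = GFP/RFP ratio change of at least 30% with cell ATP level not reduced by more than half and red fluorescence within 50% of control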; note: strong numbers were not always called active
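Assay system: RFP-PRO-GFP reporter HT1080 cells; read-out basis: GFP/RFP fluorescence ratio; benchmarks: DMSO wells and RFP-L50D-GFP cells; doses: 20 µM single dose, 1% DMSO; schedule: overnight cell settling, then overnight compound exposure, 37 °C, 5% CO2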
UUG fidelity = modulators of yeast start codon fidelity, primary screen, whole organism, S. cerevisiae, single point, plate reader; AID 602363, 2012; activity score, % at 18.7 µM; 0.13% of 350,000 active; S. cerevisiae UUG-firefly luciferase reporter, luminescence/redox ratio;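 active = replicate mean at a twofold rise or more, about +100% in these data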;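 note: firefly luciferase made from a UUG start codon reports start codon fidelity; reporter light over untreated wells divided by growth signal over untreated wells; some hits fall short of that in this replicate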
eIF4H inh = human eIF4H binding inhibitors, primary screen, translation initiation inhibitor project, biochemical, uHTS, fluorescence polarization; Eukaryotic translation initiation factor 4H (Homo sapiens), Q15056; eIF4H fluorescence polarization binding assay; inhibition, % at 35 µM; 0.94% of 290,000 active; AID 2012, 2009;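 active = 50% or more with normal probe brightness, or confirmed in later tests; inconclusive = above 50% with abnormal brightness, or retests that disagree; inactive = below 50% or failed in later tests; about a fifth of its hits are not listed in these tables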;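 note: calls also rest on retests at 20 µM and on dose response follow-up; 0% = protein and probe with vehicle and 100% = probe without protein; strong numbers were not always called active; many hits fall short of the cut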
HIV Env fusion = inhibitors of HIV-1 Env-driven cell-cell fusion, primary screen, HeLa-JRFL effector, CEM21 target cells, luciferase | 1.1% of 360,000 active | inhibition, % at 12.3 µM | AID 651610, 2012;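 active = mean replicate inhibition score of at least 50 and every replicate individually at or above 50; inconclusive = only one of the two criteria met; inactive = mean below 50 and not all replicates reaching 50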;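 note: 0% = plate neutral controls and 100% = maraviroc near 300 nM; one replicate is shown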
PABP FP inh = PABP poly(A) RNA binding inhibitors, primary screen, biochemical, fluorescence polarization, uHTS | inhibition, % at 35 µM | 1% of 290,000 active | Polyadenylate-binding protein 1 (Homo sapiens), P11940;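 active = 50% or more with normal probe brightness, or confirmed in later tests; inconclusive = above 50% with abnormal brightness, or retests that disagree; inactive = below 50% or failed in later tests; about a fifth of its hits are not listed in these tables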;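 note: calls also rest on retests at 20 µM and on dose response follow-up; controls were probe without protein and protein plus probe with vehicle; some compounds called inactive have numbers as strong as hits; many hits fall short of the cut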
MT1-MMP act inh RFP = further read-out of MT1-MMP act inh, marked with its call; RFP signal change, %; measured here: RFP expression control read;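 0 = vehicle wells; hits needed this value within 50% of zero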
* hit, by the source's call; i = inactive; ? = inconclusive; / = not tested or not shown; & = joins results of further samples. The list is partial, so the mix of outcomes need not match the whole.

structure	PABP FP inh	MT1-MMP act inh	eIF4H inh	CSC inhib	UUG fidelity	HIV Env fusion	Rce1 inh	MT1-MMP act inh RFP
CCCOC1CCCN(Cc2nc(-c3ccc(C(=O)OC)cc3)no2)C1 (stereo not given)	9	7	3	-13	-5	22	i	-13
COc1ccc(-c2nc(C#N)c(N3CCCCC3)o2)cc1	-5	3	8	4	-3	-11	i	1
C=CCNC(=O)C(=O)NCCCN1CCOCC1	-7	1	7	-5	/	-13	i	4
COc1ccnc(N2CCN(c3ccc(Cl)cc3)CC2)c1C#N	-14	3	1	/	-17	/	i	-10
CCOC(=O)Cc1c(C)c2c(C)nn(-c3ccccc3)c2oc1=O	-5	5	-4	-16	-21	22	i	6
Cc1ccc(C(=O)N(CCCN(C)C)c2nc3ccc(Cl)cc3s2)cc1C	9	-6	-3	7	/	0	i	-2
O=C(N=c1ccn(-c2nc3ccccc3nc2NS(=O)(=O)c2ccc(Cl)cc2)cc1)c1cccs1	?	-59	?	6	/	-6	i	2
O=C(CN1C(=O)NC2(CCCC2)C1=O)Nc1cccc(Cl)c1Cl	7	2	-3	/	/	-9	i	4
Cc1ccc(NC(NC(=O)c2cccnc2)C(Cl)(Cl)Cl)cc1 (stereo not given)	-9	2	0	-3	-20	-1	i	0
COc1ccc(N(CC(=O)NCCc2ccc(OC)c(OC)c2)S(=O)(=O)c2c(C)noc2C)cc1	13	1	0	-10	4	7	i	1
O=C(c1ccc(S(=O)(=O)N2CCCC2)cc1)N1CCN(c2ccccc2)CC1	4	2	2	/	/	3	i	2
COc1ccc(OC)c(/C=N\NC(=O)c2ccc(COc3ccc(C)cc3[N+](=O)[O-])o2)c1	/	-2	/	-6	/	26	i	-1
O=c1cc(CSc2nnc(Nc3ccccc3)s2)nc2sccn12	30	-5	17	0	-11	/	/	-4
Cc1cc([N+](=O)[O-])ccc1-c1ccc(C2Nc3ccccc3C(=O)N2O)o1 (stereo not given)	4	2	-1	131*	/	/	/	-10
COc1cc(NC(=O)c2ccc(C(=O)c3ccccc3)cc2)cc(OC)c1OC	0	6	-8	15	3	2	i	-4
COc1ccc(N2CCN(C(=O)c3ccc(CS(=O)(=O)c4ccc(Br)cc4)o3)CC2)cc1	6	1	1	-7	1	2	i	-6
O=C1C=C(Nc2ccc(O)cc2)CC(c2ccco2)C1 (stereo not given)	-4	10	0	7	-1	-223	i	3
Cn1c(=O)cc(OCCCC(=O)N2CCN(c3ccccn3)CC2)c2ccccc21	-1	5	-5	-3	-4	-23	i	0
CSc1ccc(S(=O)(=O)Nc2ccc3c4c(cccc24)CC3)cc1	0	-8	-4	11	5	39	i	-6
N#Cc1c(-c2ccc(F)cc2)nc2n(c1=O)CCS2	-4	-4	6	16	-11	-141	i	-2
COc1ccccc1C(=O)N/C(=C/c1ccccc1)C(=O)Nc1ccc(C(=O)O)cc1	-1	-2	7	-13	/	-19	i	0
Cc1nn(C(C)C(=O)NCCc2ccco2)c(=O)c2nn(-c3ccccc3)c(C)c12 (stereo not given)	11	-2	-3	-6	-3	9	i	-1
Cc1ccc(C(=O)N2CCN(c3ccccc3O)CC2)cc1S(=O)(=O)N1CCCCC1	/	-3	/	-14	4	2	i	-1
COC(=O)c1ccc(OC(=O)c2ccncc2)cc1O	5	1	-7	-8	-15	4	i	3
CN(C)C(=O)c1cccc(-c2cnc3c(NC=O)cc(-c4ccccc4N(C)C)cn23)c1	/	-57	/	/	-42	22	/	8
COc1ccc(-n2c(C)cc(C(=O)COc3ccc(C)nc3[N+](=O)[O-])c2C)cc1	0	-1	21	39	/	5	i	-9
Cc1ccc(S(=O)(=O)N(C)C)cc1NC(=O)C1CCCCN1S(=O)(=O)c1ccccc1 (stereo not given)	/	-2	/	-6	-1	/	/	-3
O=C(N/N=C1/CCSC1)c1cc(Br)ccc1O	14	3	13	10	-1	11	i	4
Fc1ccccc1C1c2[nH]c3ccccc3c2CCN1Cc1cccn1-c1ncccn1 (stereo not given)	13	1	42	5	/	30	i	3
Cc1cc(NC(=O)c2ccccc2Cl)c(C(C)C)cc1O	-7	-1	6	-7	-1	-187	i	2
O=S(=O)(Nc1n[nH]c(C(F)(F)F)n1)c1ccccc1	2	1	-2	0	-24	11	i	3
CC(C)C[C@@H](CN)NC(=O)c1nc[nH]c1C(=O)N[C@@H](Cc1c[nH]c2ccccc12)C(=O)CNC[C@H](C)NC(=O)c1nc[nH]c1C(=O)N[C@@H](C)C(=O)O	/	0	/	/	166*	-4	/	4
N#CC(CCc1ccccn1)c1ccccc1 (stereo not given)	/	-2	/	/	-20	8	/	3
COc1ccc(S(=O)(=O)N2CCCOC2CNC(=O)C(=O)NCc2ccccc2F)cc1C (stereo not given)	10	-1	5	-4	21	2	i	-5
CCN(CC)S(=O)(=O)c1ccc(N/N=C(\C)c2cccnc2)nc1	4	3	-8	-4	-13	0	i	0
O=C(C1CCCN(S(=O)(=O)c2cnc[nH]2)C1)N1CCN(Cc2ccccc2)CC1 (stereo not given)	-9	-1	0	-6	1	/	i	1
COc1ccc(/C=C(\NC(=O)c2ccco2)C(=O)N2CCOCC2)cc1	5	4	-4	-10	/	1	i	2
Cc1cc(Br)ccc1SCC(=O)OCC(O)=C(C#N)c1nc2ccccc2[nH]1	/	2	/	/	-3	-7	/	4
Nc1nc2ccc(C(=O)NC3CCCCC3)cc2s1	1	5	-3	11	-26	/	i	5
Cc1cc(C)c2nc(-c3ccccn3)cc(C(=O)n3cccn3)c2c1	61*	2	25	/	/	9	i	5
CC(C)S(=O)(=O)c1ccc(C(=O)Nc2ccc(F)cc2F)cn1	-4	3	-5	-10	/	-8	i	4
CC1(C)Oc2cc(N)c([N+](=O)[O-])cc2O1	-3	11	-5	-5	-11	/	i	1
O=C(CN1CCN(CC(=O)Nc2cccc(F)c2)CC1)NCC1(N2CCOCC2)CCCCC1	/	6	/	/	-12	-7	/	4
C[C@]12c3[nH]c4ccccc4c3CCN1C(=O)C(CC(=O)NCC13CC4CC(CC(C4)C1)C3)C[C@@H]2C(=O)N1CCOCC1 (stereo not given in full)	/	5	/	-23	-3	-18	/	-4
O=C(c1ccc(=O)[nH]c1)N(Cc1cccs1)C1(C(=O)NC2CCCC2)CCCCC1	7	4	-6	3	/	25	i	5
COc1ccc(CNC(=O)COC(=O)c2c(C)nn(-c3ccccc3)c2C)cc1OC	/	3	/	/	6	30	/	-6
C=CCNC(=S)NNC(=O)c1ccc(C)c(Cl)c1	-10	-2	-8	15	4	0	i	-2
Cc1nc2sc3c(c2c(=O)o1)CC(C)(C)OC3	13	2	-6	-14	-6	/	i	8
CCOC(=O)N1CCN(C(=O)c2cccn3c(=O)c4sccc4nc23)CC1	11	-6	3	/	-13	-26	/	-2
O=C(NC(=S)Nn1cnnc1)c1ccccc1	/	0	/	-25	-25	/	i	3
CC1Cc2ccccc2N1C(=O)CSc1nc2ccccc2o1 (stereo not given)	6	-2	2	1	-6	?	/	2
O=C(Nc1nnc(-c2cccnc2)o1)c1cccc(Cl)c1	1	-1	13	33	/	0	i	-2
COc1cccc(C(=O)N(Cc2ccccc2)Cc2cc3cc4c(cc3[nH]c2=O)OCCO4)c1	-14	-9	7	1	-9	-22	i	-10
CC(=O)Nc1cccc(-c2ccnc3c2CC(C(=O)NCCc2ccccc2)O3)c1 (stereo not given)	/	13	/	/	-14	-3	/	-9
c1ccc(CCCCN2C(Nc3ccccc3)=NC[C@@H]2Cc2ccccc2)cc1	/	2	/	20	-18	-56	/	-4
CCN(CC)CC(C)(C)COC(=O)c1oc2ccccc2c1C	-1	-1	-7	29	3	8	i	1
COc1ccc(NC(=O)c2cc(S(=O)(=O)N3CCCC3)cn2C)cc1Cl	-9	0	-28	/	-13	17	i	-1
Cc1ccc(CNC(=O)c2nnn(CC(=O)Nc3cccc(C)c3C)c2N)cc1	-6	1	10	-13	0	1	i	1
Cc1ccc(S(=O)(=O)CCC(=O)Nc2nc3c(s2)CCCC3)cc1	-12	-1	-6	-12	-8	/	i	1
CCCOc1ccc(Cl)cc1/C=C1/C(=O)ON=C1C	4	7	-5	3	4	3	i	8

(next part)
structure	PABP FP inh	MT1-MMP act inh	eIF4H inh	CSC inhib	UUG fidelity	HIV Env fusion	Rce1 inh	MT1-MMP act inh RFP
CC(=O)NC(Cc1cc(C)ccc1C)C(=O)N1CCN(C(=O)c2ccccc2Br)CC1 (stereo not given)	1	1	-8	6	/	-37	i	2
CC(=NO)C1CCC2C3CCC4CC(=NO)CCC4(C)C3C(C)(O)CC12C (stereo not given)	/	-6	/	/	-5	8	/	-2
CCCc1nc2ccc(Cl)cn2c1Cc1cccc(Cl)c1	/	4	/	/	5	5	/	-4
O=C(O)C1C2C=CC(O2)C1C(=O)Nc1ccc2c(c1)OCCO2 (stereo not given)	7	/	6	-21	/	/	i	/
CC(C)CN1CCCC(N2CCN(c3cccc(Cl)c3)CC2)C1 (stereo not given)	6	1	4	55	-14	1	i	4
CC(C)C(=O)N(Nc1nc2ccccc2s1)C(=O)C(C)C	3	0	-3	/	/	/	?	5
COc1cc(Cl)c(C)cc1NC(=O)CN1CCN(C(=O)C2CC2)CC1	/	-4	/	24	2	/	/	-11
O=S1(=O)CC(N2CCN(CCO)CC2)CN1C1CCCCC1 (stereo not given)	/	-1	/	/	-13	9	/	2
CCCS(=O)(=O)NC(=O)C1(C)CCN(C(=O)COc2ccccc2)C1 (stereo not given)	/	5	/	/	6	-1	/	4
Cc1onc(-c2ccc(Cl)cc2)c1-c1ccnc(SCC(=O)Nc2ccc(C(C)C)cc2)n1	-3	-2	8	4	/	43	i	-7
COC(=O)c1ccc(C2=NOC(C)(c3sc(-c4ccccc4)nc3C)C2)cc1 (stereo not given)	2	3	7	3	-10	14	i	2
CCOc1nc(-c2ccc(OC)cc2)ccc1-c1noc(C)n1	3	1	4	4	/	5	i	-5
Cc1c(Nc2ncnc3c2cnn3-c2ccccc2)c(=O)n(-c2ccccc2)n1C	1	7	-2	-10	1	27	i	2
CCCS(=O)(=O)NC(=O)C1(C)CCN(C(=O)c2cccc(OC(F)(F)F)c2)C1 (stereo not given)	/	4	/	/	-6	-52	/	3
Cc1ccc(S(=O)(=O)N2[C@@H](c3ccccc3)C(C(=O)O)=CC[C@H]2c2ccc(Cl)cc2)cc1	/	-2	/	4	42&3	10	/	7
O=C(CN1CCN(c2ccccc2)CC1)Nc1c(C(=O)C2CC2)oc2ccccc12	2	4	-6	25	19	50	i	-1
Cc1cc(C)c(S(=O)(=O)N2CCOC2CNC(=O)C(=O)NCCCn2ccnc2)c(C)c1 (stereo not given)	-1	-13	3	-6	/	-26	i	-10
COc1ccc(CCNC(=O)COC(=O)c2ccc(OC)cc2OC)cc1	/	1	/	/	-18	4	/	-4
